D2 potentiator – human D2 receptor positive allosteric modulation | DiscoveRx D2 beta-arrestin cells, luminescence, 90 min; 100% = 57 uM dopamine signal | potentiation, % (no concentration beside the values) | hit rate 0.23% among 360,000 | AID 624464; active = potentiation of 50% or more; inconclusive = 30% to 50%; inactive = 30% or less;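 note: compound concentration not given in the record; tested on top of an EC20 dose of dopamine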
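PathHunter D2 cells, attached overnight at 37 deg C, received compound in DMSO plus dopamine at EC20 (50 nM final) for 90 min at 37 deg C. Beta-arrestin recruitment was read as luminescence after 1 h with detection reagent at ambient temperature.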
Six1-Eya2 inh – Six1/Eya2 interaction inhibition | Q15475+O00167 | AlphaScreen GST-Six1/His-Eya2 binding, biochemical; hits give low values; control for the full effect not named in the record | activity change, % (no concentration beside the values) | hit rate 0.56% among 360,000 | AID 651725; in the data active = activity change below about -65%; inconclusive = about -30% to -65%; inactive = above about -30%; note: % is set by controls: 0 for no effect and ±100 for the full control effect; compound concentration not given in the record
Target sequence (O00167 whole entry, looked up): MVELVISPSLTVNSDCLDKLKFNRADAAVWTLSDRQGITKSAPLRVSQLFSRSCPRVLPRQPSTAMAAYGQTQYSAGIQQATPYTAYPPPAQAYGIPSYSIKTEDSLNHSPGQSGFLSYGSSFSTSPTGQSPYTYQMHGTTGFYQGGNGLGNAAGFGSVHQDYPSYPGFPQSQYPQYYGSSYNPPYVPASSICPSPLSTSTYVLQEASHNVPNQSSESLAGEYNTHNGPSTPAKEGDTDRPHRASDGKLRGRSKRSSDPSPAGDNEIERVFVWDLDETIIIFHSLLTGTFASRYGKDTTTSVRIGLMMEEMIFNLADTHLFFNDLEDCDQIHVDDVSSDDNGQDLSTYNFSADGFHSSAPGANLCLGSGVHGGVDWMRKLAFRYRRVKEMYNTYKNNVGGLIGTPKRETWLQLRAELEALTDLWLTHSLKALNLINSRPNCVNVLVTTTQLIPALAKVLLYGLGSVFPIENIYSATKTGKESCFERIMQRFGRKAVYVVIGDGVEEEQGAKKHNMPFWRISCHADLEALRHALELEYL
Target sequence (Q15475 whole entry, looked up): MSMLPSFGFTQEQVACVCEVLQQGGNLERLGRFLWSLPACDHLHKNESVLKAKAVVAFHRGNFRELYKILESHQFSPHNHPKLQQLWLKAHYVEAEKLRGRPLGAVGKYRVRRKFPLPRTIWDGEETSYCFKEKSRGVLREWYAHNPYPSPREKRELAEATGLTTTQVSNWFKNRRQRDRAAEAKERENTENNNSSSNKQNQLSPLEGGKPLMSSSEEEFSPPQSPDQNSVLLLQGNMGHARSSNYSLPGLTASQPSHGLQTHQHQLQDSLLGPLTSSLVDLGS
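AlphaScreen with GST-Six1 and His-Eya2 (5X mix: 250 nM and 500 nM), glutathione donor and nickel acceptor beads; buffer 50 mM Tris pH 8.0, 300 mM NaCl, 1 mM TCEP; 1 h at 37 C in the dark.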
PINK1 modulator – PINK1 expression modulation. hit rate 0.2% among 410,000. PINK1 immunofluorescence, high-content cytometry, 24 h. Potency, µM (titrated, usually from 76.6 µM), for the others: at the top dose activation (PINK1 increase), usual class: activators; active = well fitted activation curve with a large enough effect; inconclusive = small, poorly fitted or top-dose-only effect; inactive = flat fitted curve, though single readings scatter; cell line not stated here;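 note: potency is the fitted concentration of half-maximal effect; % of control where 0% means no effect; nearly all actives have a fitted effect of over 65% in size; a mitochondrial uncoupler was the plate control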
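Cells are seeded, rested 12 hours, then given compound at five concentrations or DMSO for 24 hours. After fixation, blocking and antibody staining, PINK1 amount and mitochondrial localization are scored; CCCP serves as control.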
TRPML1 inh – blocks the human TRPML1 channel | hit rate 0.02% among 390,000 | Q9GZU1 | activity change, negative = inhibition, % (concentration not given with the values) | AID 624415 | TRPML1-inducible cells, Ca2+ dye fluorescence, FDSS; hits give low values; inhibition of EC80 agonist-evoked calcium signal; in the data active means activity change below about -50%; inconclusive means about -30% to -50%; inactive means above about -30%;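 note: stimulus is agonist 54-4 at its EC80 concentration; % is set by controls: 0 for no effect and ±100 for the full control effect; compound concentration not given in the record; the text of the record puts the active cut at -80%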
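Calcium fluorescence in TRPML1-DL cells induced overnight with Tet: a 110 s read after compound pin addition, then a 110 s antagonist read after challenge with 54-4 at 4 uM final (EC80).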
TRPML1 agonist – agonists of human TRPML1 channel; Q9GZU1; activation, % (no concentration beside the values); hit rate 0.12% among 410,000; AID 624414; TRPML1-expressing cells, Ca2+ dye fluorescence, FDSS; host cell line not named in the record; reference of the full effect not given here; in the data active = activation above about 50%; inconclusive = about 30% to 50%; inactive = below about 30%; note: 0% is about no effect; the text of the record puts the active cut at 80%
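Agonist activity was taken from a 110 s kinetic Ca2+ dye read on the FDSS after pinning compounds onto TRPML1-DL cells. The cells were seeded at 1,500/well with Tet inducer, incubated about 16 h, then dye-loaded at room temperature.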
D2 agonist – human D2 receptor agonism in beta-arrestin assay. DiscoveRx PathHunter D2 beta-arrestin, luminescence, 90 min; 100% = 57 uM dopamine signal. P14416. activation, % (test concentration not listed). hit rate 0.084% among 360,000; in the data active = activation above about 40%; inconclusive = about 15% to 40%; inactive = below about 15%; note: compound concentration not given in the record; the text of the record calls up to 30% inactive
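DiscoveRx PathHunter D2 beta-arrestin cells (2,100/well) attached overnight, then compound-stimulated 90 min at 37 C in HBSS/10 mM HEPES/0.1% Tween-20 buffer; beta-galactosidase complementation read by luminescence after 1 h at ambient temperature. Dopamine 57 uM final (EC100) as control.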
Active calls of the source: *; ? = inconclusive; / = no result given; & = joins results of further samples; [ ] = another dose, or the depositor's remark.

A first look (six entries):
SMILES	D2 potentiator	Six1-Eya2 inh	PINK1 modulator	TRPML1 inh	TRPML1 agonist	D2 agonist
O=C1NC(=O)C(CCc2ccncc2)(c2ccccc2)C(=O)N1	-3	8	-0.2%	-8	-0.6	-1.4
Cc1ccccc1N1C(=O)NC(=O)/C(=C\c2cc(C)n(C)c2C)C1=O	-2	-7	1.6%	31	-0.3	8.0
Clc1ccc(OCC#CCN2CCOCC2)cc1	12	-2	-1.8%	-6	2.2	1.1
OC(CNC1CCCCC1)C(F)(F)F (stereo not given)	-4	5	0.6%	-6	0.6	-2.3
COc1ccc(C(=O)C2CCCN(Cc3ccon3)C2)c(OC)c1 (stereo not given)	-9	4	0.0%	-16	-0.4	-4.4
O=C(CN1CCCCC1)c1ccccc1F	4	8	0.5%	3	0.9	-2.0

Results (from the top)
SMILES	D2 potentiator	Six1-Eya2 inh	PINK1 modulator	TRPML1 inh	TRPML1 agonist	D2 agonist
O=C1NC(=O)C(CCc2ccncc2)(c2ccccc2)C(=O)N1	-3	8	-0.2%	-8	-0.6	-1.4
Cc1ccccc1N1C(=O)NC(=O)/C(=C\c2cc(C)n(C)c2C)C1=O	-2	-7	1.6%	31	-0.3	8.0
Clc1ccc(OCC#CCN2CCOCC2)cc1	12	-2	-1.8%	-6	2.2	1.1
OC(CNC1CCCCC1)C(F)(F)F (stereo not given)	-4	5	0.6%	-6	0.6	-2.3
COc1ccc(C(=O)C2CCCN(Cc3ccon3)C2)c(OC)c1 (stereo not given)	-9	4	0.0%	-16	-0.4	-4.4
O=C(CN1CCCCC1)c1ccccc1F	4	8	0.5%	3	0.9	-2.0
COc1ccccc1-n1c(O)c(/C=C2\C=Nc3ccccc32)c(=O)[nH]c1=O	0	1	8.1%	-18	1.7	-0.4
O=c1[nH]c(O)c(N=Nc2cccc(S(=O)(=O)N3CCOCC3)c2)c(=O)[nH]1	-7	-11	1.1%	7	0.3	2.5
COC(=O)C1=C(c2ccc(OC)c(OC)c2)C[C@@H]2CC[C@H]1N2C(=O)NC1Cc2ccccc2C1	-9	1	6.3%	-7	-0.3	-1.4
COC(=O)C1=C(c2ccc(F)cc2F)C[C@@H]2CC[C@H]1N2C(=O)N1CCCCC1	-8	-1	-0.5%	-19	-0.3	-1.6
N[C@@H](Cc1ccc(N(CCCl)CCCl)cc1)C(=O)O	-1	-1	-0.6%	18	0.4	-4.4
CN(C)CC1CCCCC1OC(=O)c1ccc(Cl)c(Cl)c1 (stereo not given)	-11	-10	6.4%	3	-0.1	-2.9
COc1ccc(-n2nnnc2C(c2cccs2)N2CCC(n3c(=O)[nH]c4ccccc43)CC2)cc1 (stereo not given)	/	-12	-0.6%	/	0.0	6.0
O=C(CCc1nnc2ccc(NCc3ccccc3)nn12)N1CCC2(CC1)OCCO2	0	-1	2.1%	2	-0.8	-4.8
COc1cc(N2CCOCC2)ccc1/C=C1\C(=O)NC(=O)N(Cc2ccc3c(c2)OCO3)C1=O	1	-3	2.1%	15	-0.1	-3.9
O=C(c1ccc(Cl)cc1)C1CCCN(Cc2ccc3nonc3c2)C1 (stereo not given)	-16	10	3.6%	83	3.6	0.0
CN(C)C(=O)Oc1ccc(NC(=O)N2CCOCC2)cc1	2	5	1.4%	-4	0.1	-1.7
NCCc1c(Cc2ccccc2)[nH]c2ccccc12	-22	-15	-1.3%	6	-0.1	-3.5
CC1CCCN(CC(=O)c2ccc(Cl)c(Cl)c2)C1 (stereo not given)	-43	-4	0.9%	-1	-0.3	-21
COc1ccc(-c2nn(CCC#N)cc2C(=O)Nc2ccccc2Br)cc1[N+](=O)[O-]	-1	4	5.3%	-8	1.7	?
CCOc1cc2c(cc1OCC)-n1cccc1C(c1ccc(OC)cc1)NC2 (stereo not given)	-22	-17	?	-11	1.0	-3.3
O=S(=O)(O)C(=Cc1ccccc1)c1ccccc1 (tested in a mixture with another compound)	-7	0	0.5%	21	1.4	0.3
CCOCC1(CCc2ccccc2)C(=O)NC(=S)NC1=O	-14	4	-0.5%	-3	-0.3	-4.1
COc1cc(/C=C2\C[C@H]3[C@@H]4CC=C5C[C@@H](N6CCCC6)CC[C@]5(C)[C@H]4CC[C@]3(C)[C@H]2O)cc(OC)c1OC	-21	-16	?	15	0.2	-1.3
CC1CCC(NCCc2ccc3c(c2)OCO3)CC1 (stereo not given)	-20	1	-1.5%[38.3 µM]	1	-0.3	-2.7
COC(=O)N1C(c2ccccc2)C1c1ccccc1 (stereo not given)	-5	2	2.6%	-12	1.4	-4.1
CCS(=O)(=O)N1CCC(C(=O)N2CCC3(CC2)OCCO3)CC1	-12	7	?	-13	0.4	-0.9
N/C(=N/[N+](=O)[O-])N1CCN(C(=O)Oc2ccc([N+](=O)[O-])cc2)CC1	-8	21	-0.4%	-4	0.5	-7.3
Cc1cc(C)c(S(=O)(=O)NCC2CCC(C(=O)N3CCC4(CC3)OCCO4)CC2)c(C)c1 (stereo not given)	3	2	/	21	0.3	-2.0
C=CCN1C(=O)NC(=O)/C(=C/c2cnc(SC)nc2)C1=O	-11	0	3.3%	6	-0.4	-1.8
CCN(CC)Cc1c[nH]c2ccccc12	-5	-1	7.8%	-10	-0.4	-1.3
C=CCn1c(O)c(/C=C2/C=c3ccccc3=N2)c(=O)[nH]c1=S	-7	-2	2.0%	-4	1.7	-1.4
C=C(C)[C@@H]1[C@H]2OC(=O)[C@H]1[C@]1(O)C[C@H]3O[C@]34C(=O)O[C@H]2[C@]14C	0	4	-0.8%	-2	0.5	2.2
COc1ccc(CN2Cc3cc(N4CCOCC4)ccc3-n3nncc3C2)cc1	-4	-3	-0.2%	/	-0.7	-7.2
CC1(C)N2CC3([N+](=O)[O-])CN1CC([N+](=O)[O-])(C2)C3	-15	3	2.5%	-6	-0.2	-14
Fc1cccc(-c2ccc3c(c2)CN(C(=S)NCCc2ccccc2)Cc2cnnn2-3)c1	-3	14	0.1%	/	0.3	-2.2
CC(=O)c1cn(Cc2ccc(F)cc2)c2ccccc12	-5	-7	4.0%	52	0.2	14
CCOc1ccc(NC(=O)c2ccc(NC(=O)COC(=O)Cc3ccccc3)cc2)cc1	-1	32	6.8%	-1	1.0	-1.4
Cc1cc(C)cc(N2C(=O)NC(=O)/C(=C\c3cc(C)n(C)c3C)C2=O)c1	-7	18	?	1	1.0	-5.2
C=CCN1C(=O)/C(=C/c2ccc(Br)s2)C(=O)NC1=S	0	3	1.0%	/	/	-1.5
N=C1c2ccccc2CN1NC(=O)c1ccc(F)cc1	-26	0	/	6	-0.4	-1.6
COC(=O)[C@@H]1C[C@H]1[C@@H](NP(=O)(c1ccccc1)c1ccccc1)c1ccccc1	-49	6	-0.1%	-7	-1.0	1.3
CC(C)(O)/C=C/C(=O)C(C)(O)C1C(O)CC2(C)C3CC=C4C(C=C(O)C(=O)C4(C)C)C3(C)C(=O)CC12C (stereo not given)	-16	1	-6.0%	36	0.2	1.2
COC(=O)C1=C(c2cccc(OCc3ccccc3)c2)C[C@@H]2CC[C@H]1N2C(=O)NCc1cccc(C(F)(F)F)c1	-6	-6	1.8%	23	0.1	-0.2
CCOc1ccc(CN(CCCl)CCCl)cc1C(=O)OC	3	9	-3.4%	10	1.1	0.3
CN[C@@H](C)[C@@H](O)c1ccccc1	-9	2	-0.3%	35	0.0	-5.4
Cc1c(N=Cc2c(O)n(Cc3ccc(F)cc3)c(=O)[nH]c2=O)c(=O)n(-c2ccccc2)n1C	12	-2	/	-8	0.6	-1.4
COC(=O)C1=C(c2ccc(S(C)(=O)=O)cc2)C[C@@H]2CC[C@H]1N2C	2	3	1.2%	32	-0.4	-0.4
Cc1nc2sccc2c(=O)n1-c1ccccc1Cl	-9	3	-1.4%	-1	-0.5	-3.3
Cc1cc(N2CCNCC2)nc2ccccc12	-12	2	1.3%	13	0.0	-3.7
Other structures.
SMILES	D2 potentiator	Six1-Eya2 inh	PINK1 modulator	TRPML1 inh	TRPML1 agonist	D2 agonist
O=C(O)CC1OCC=C2CN3CCC45C6=CC(=O)C(=O)C([N+](=O)[O-])=C6NC4C1C2CC35 (stereo not given)	?	20	-1.2%&1.8%	33	-0.9&0.1	?
CCC(=NCc1cccnc1)c1c(O)n(-c2ccccc2C)c(=O)[nH]c1=O	-3	0	3.6%	12	-0.1	-1.5
O=C(c1ccc(F)cc1)N1CCC2(CC1)OCCO2	6	4	0.6%	/	/	-0.6
COc1ccc2c(c1OC)C(=O)O[C@@H]2[C@H]1c2cc3c(cc2CCN1C)OCO3	2	-1	1.9%	1	-1.1	-5.3
CCOP(=O)(OCC)/C(C#N)=C/c1ccc(Br)cc1	-2	15	2.4%	0	0.3	-0.5
Cc1cc(N2C(=O)C3CCCN3C2c2cccc(Cl)c2)no1 (stereo not given)	-1	-2	0.3%	9	-0.4	-3.2
C/C(=N\N1CCCCCC1)c1c(O)n(-c2ccccc2)c(=O)[nH]c1=O	-17	0	3.2%	4	-0.1	0.0
Cc1ccc(-c2nc3ccccc3c(=O)n2-c2ccc(Br)cn2)cc1	-3	5	-2.1%	2	0.8	-1.7
CCOc1ccc(NC(=O)c2cccn(Cc3cccc(Cl)c3)c2=O)cc1	/	/	1.1%	-1	2.7	/
CCn1cc(C(=O)N2CCOCC2)c2ccccc21	-11	1	2.7%	3	0.1	-2.7
COc1ccccc1N=C1SCCCN1C	-16	2	-0.4%[38.3 µM]	2	-0.3	-2.8
CC=C(C)C(=O)OC1CCN2CC=C(COC(=O)C(O)(C(C)OC)C(C)(C)O)C12 (stereo not given)	-8	8	1.0%	-6	-0.1	4.4
Oc1cc(Cl)c(Cl)c(Cl)c1Cl	-3	-27	?	0	0.2	-1.3
Clc1cccc(N2Cc3cc(-c4ccccc4)ccc3-n3nncc3C2)c1	-8	-19	2.1%	/	-0.4	-7.1
Cc1cc(C)nc(-n2c(C)nc3cc(Cl)ccc3c2=O)c1	-13	-5	3.3%	-12	-0.7	-1.7
COc1ccc2c(c1)c(C(=O)CN1CCN(C)CC1)c(C)n2Cc1ccccc1	-22	-2	-0.4%	14	1.1	-0.7
C[N+]12CCC(CC1)C(C(O)(c1cccc(Cl)c1)c1cccc(Cl)c1)C2 (stereo not given)	-20	-11	4.8%	-7	-0.8	-8.4
CCN1CCN(S(=O)(=O)c2cnc(Cl)c(Br)c2)CC1	-11	11	5.4%	-20	-0.5	-1.3
CCSc1cc(C2C(C#N)=C(N)Oc3n[nH]c(C)c32)c(C)o1 (stereo not given)	0	-3	4.6%	-2	1.7	-0.5
Cc1nc2ccccc2c(=O)n1-c1ccc(F)cc1	-6	3	-1.6%[38.3 µM]	-11	-0.5	2.8
COC1=C[C@@H]2C3=C([C@@H]2C1=O)[C@@H](NC(C)=O)CCc1cc(OC)c(OC)c(OC)c13	-9	-2	0.1%	0	-0.3	5.6
CC(=O)N1CCN(Cc2ccc(Cl)nc2)CC1	2	3	-0.4%	-26	0.4	4.3
COC(=O)C1=C(c2ccc(Cl)c(C(F)(F)F)c2)C[C@@H]2CC[C@H]1N2C(=O)NCCNC(C)=O	-13	-5	0.0%	27	-0.1	0.1

A portion of the library; count on the stated rates, not on these rows.
